D2 ag = human D2 receptor agonism in beta-arrestin assay. activation, % (no concentration beside the values). DiscoveRx PathHunter D2 beta-arrestin, luminescence, 90 min; 100% = 57 uM dopamine signal. AID 624465. 360,000 compounds, 0.084% hits; in the data active = activation above about 40%; inconclusive = about 15% to 40%; inactive = below about 15%; note: compound concentration not given in the record; the text of the record calls up to 30% inactive
Target sequence (P14416 whole entry, looked up): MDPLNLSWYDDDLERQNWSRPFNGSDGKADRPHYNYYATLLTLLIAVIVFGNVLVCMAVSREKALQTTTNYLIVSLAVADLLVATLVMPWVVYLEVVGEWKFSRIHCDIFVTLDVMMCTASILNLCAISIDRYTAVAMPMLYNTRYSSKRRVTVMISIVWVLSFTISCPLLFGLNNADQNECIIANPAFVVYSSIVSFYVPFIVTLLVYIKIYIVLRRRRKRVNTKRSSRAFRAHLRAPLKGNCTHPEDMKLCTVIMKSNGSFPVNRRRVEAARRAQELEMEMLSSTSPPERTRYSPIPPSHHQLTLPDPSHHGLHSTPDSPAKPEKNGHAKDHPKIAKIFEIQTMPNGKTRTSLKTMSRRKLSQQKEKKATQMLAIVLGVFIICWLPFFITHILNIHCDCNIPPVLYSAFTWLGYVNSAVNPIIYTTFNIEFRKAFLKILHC
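DiscoveRx PathHunter D2 beta-arrestin cells (2,100/well) attached overnight, then compound-stimulated 90 min at 37 C in HBSS/10 mM HEPES/0.1% Tween-20 buffer; beta-galactosidase complementation read by luminescence after 1 h at ambient temperature. Dopamine 57 uM final (EC100) as control.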
Six1-Eya2 inh = blocks human Six1 binding to Eya2 | Q15475+O00167 | AlphaScreen GST-Six1/His-Eya2 binding, biochemical; stronger effect = lower value; control for the full effect not named in the record | activity change, % (concentration not given with the values) | 360,000 compounds, 0.56% hits | AID 651725; in the data active = activity change below about -65%; inconclusive = about -30% to -65%; inactive = above about -30%; note: % is set by controls: 0 for no effect and ±100 for the full control effect
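GST-Six1 + His-Eya2 (5X stock: 250/500 nM); Tris pH 8.0, 300 mM NaCl, 0.05% BSA, 0.02% Tween 20; GSH donor/Ni acceptor beads; 1 h 37 °C dark; AlphaScreen readout.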
gsp antag = gsp mutant antagonism. gsp-mutant cells, cAMP HTRF, 30 min; control for the full effect not named in the record. 340,000 compounds, 0.4% hits. Potency, µM (series often up to 76.9 µM), without a hit: at the highest dose activity change, negative = inhibition, actives largely listed as inhibitors; active = falling curve of any shape with a large fitted effect; inconclusive = falling curve, mostly with a smaller effect; inactive = flat or rising curve; cell line not stated here;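 note: intracellular cAMP measured with PDE inhibitor Ro 20-1724 present during compound exposure; potency is the fitted concentration of half-maximal effect; % is set by controls: 0 for no effect and ±100 for the full control effect; nearly all actives have a fitted effect of over 65% in size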
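Cells, 2000/well, grown 16–24 h in DMEM 10% FBS with 0.5 mg/ml G418, then compounds plus […] (300 uM addition stock), 30 min at 37C. cAMP read by HTRF (cAMP-d2 and anti-cAMP antibody-K in lysis buffer) after 30 min RT.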
CtBP-E1A inh = CtBP/E1A binding inhibition; 340,000 compounds, 0.49% hits; AID 651724; AlphaScreen GST-E1A/His-CtBP binding, 1536-well; stronger effect = lower value; control for the full effect not named in the record; activity change, % (no concentration beside the values); in the data active means activity change below about -65%; inconclusive means about -30% to -65%; inactive means above about -30%; note: % is set by controls: 0 for no effect and ±100 for the full control effect
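Steps: dispense buffer (Tris pH 8.0, NaCl 300 mM, TCEP 1 mM, BSA, Tween 20); add 5X protein mix (GST-E1A, His-CtBP, 125 nM each); pin 23 nL compound; 2 h at 37 °C, dark; add 5X beads (50 ug/mL); 1 h; read.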
D2 potentiator = positive allosteric modulators of human D2 dopamine receptor; P14416; DiscoveRx D2 beta-arrestin cells, luminescence, 90 min; 100% = 57 uM dopamine signal; potentiation, % (concentration not given with the values); 360,000 compounds, 0.23% hits; AID 624464; active = potentiation of 50% or more; inconclusive = 30% to 50%; inactive = 30% or less;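 note: tested on top of an EC20 dose of dopamine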
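PathHunter D2 cells, attached overnight at 37 deg C, received compound in DMSO plus dopamine at EC20 (50 nM final) for 90 min at 37 deg C. Beta-arrestin recruitment was read as luminescence after 1 h with detection reagent at ambient temperature.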
gsp agonist = agonists of gsp mutant (McCune-Albright syndrome); 340,000 compounds, 0.13% hits; gsp mutant cells, cAMP HTRF, 30 min; control for the full effect not named in the record; Potency, µM (titrated, usually from 76.9 µM), without a hit: at the top dose activation (cAMP increase), usual class: activators; active = well fitted activation curve with a large enough effect; inconclusive = small, poorly fitted or top-dose-only effect, or another doubt; inactive = no such curve, though single readings can be large or run the other way; cell line not stated here;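 note: phosphodiesterase inhibitor Ro 20-1724 added with compounds to block cAMP breakdown; potency is the fitted concentration of half-maximal effect; nearly all actives have a fitted effect of over 60% in size; about a fifth of the inactives were tested at one dose only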
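Cells stably selected in G418 were plated at 2000/well, grown 16-24 hr, then given compounds in DMSO with the PDE inhibitor […] (300 uM solution added) for 30 min at 37C; cAMP was read by HTRF.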
Starred values were filed as active, the others as inactive; ? = inconclusive; nt = no result given; & = joins results of further samples; [ ] = dose if it differs, or a comment.

Compound	D2 ag	Six1-Eya2 inh	gsp antag	CtBP-E1A inh	D2 potentiator	gsp agonist
COC(=O)N/N=C/c1ccccc1Cl	-1.0	3	5%	-5	-9	-42%[inhibitor]
CCOC(=O)CN(C)S(=O)(=O)c1ccc(-c2cc(C(=O)OC)sc2C(F)(F)F)cc1	4.1	-11	-22%	nt	-7	-16%
O=C(Nc1ccc(S(=O)(=O)N2CCCC2)cc1)c1cnccn1	6.9	-3	8%	3	-1	12%
C[C@@H](C(=O)NC1CCCCC1)N1C(=O)N2CCc3c([nH]c4ccccc34)[C@@]2(C)C1=O	-3.7	-8	-4%	-6	-18	nt
Cc1ccnc(NS(=O)(=O)c2ccc(NC(=O)c3ccc(S(=O)(=O)N(C)C)cc3)cc2)n1	4.2	-3	-12%	nt	-7	21%
CCOC(=O)c1sc(NC(=O)c2ccncc2)nc1C	-0.1	9	-11%	-11	9	1%
O=C(c1cc(COc2c(F)cccc2F)on1)N1CCCCCC1	-4.5	10	6%	4	-22	-1%[15.4 µM]
CCCCc1c(O)nc2sc3cc(OC)ccc3n2c1=O	0.5	3	-5%	2	-12	-2%
Cc1ccc(-c2ccc(C(=O)O)c(C)n2)cc1	0.7	3	2%	8	-18	1%
Cc1ccc(CNC(=O)CNC(=O)[C@@H]2Cc3ccccc3CN2)cc1	-13	1	5%	2	-9	-29%
COc1cc(OC)c(C(=O)N2CCCC2)cc1OC	0.6	7	5%	3	2	19%
CCN(c1ccc(NC(=O)COC(=O)CCC(=O)c2ccc(F)cc2)cc1)C(C)C	1.1	?	-6%	?	28	8%
COc1cccc(/C=N/Nc2nnc(C)n2N)c1OCc1ccccc1Cl	?	0	-4%	-3	?	-51%[inhibitor]
Cc1cc[n+](Cc2ccc([N+](=O)[O-])cc2)cc1	0.7	14	-29%	-2	-5	18%[15.4 µM]
COc1ccc2oc(=O)c(C(=O)N3CCCC3)cc2c1	-0.8	9	5%	2	-4	18%[15.4 µM]
CS(=O)(=O)N1CCc2cc(-c3csc(NCC4CCCO4)n3)ccc21 (stereo not given)	-0.8	8	-15%	44	-3	-37%[inhibitor]
Cc1ccc(C(=O)NCCCn2ccnc2)cn1	-2.9	-5	8%	-2	8	-17%
Cc1ccc(NC(=O)C(Cc2ccccc2)NC(=O)c2ccco2)cc1 (stereo not given)	-1.5	-9	9%	-27	-16	-16%
C[C@@H](NCCCn1ccc(NC(=O)OCc2ccccc2)nc1=O)c1cccc2ccccc12	-0.9	-5	-1%	-25	nt	nt
O=C(COC(=O)C1(c2ccc(F)cc2)CCCC1)N1CCc2ccccc21	-1.4	15	-10%	6	6	-3%
COC(=O)C1=C2SCC(=O)N2C(N)=C(C#N)C1	-6.5	21	7%	-25	8	-7%[15.4 µM]
COc1ccc(CCN2CC(C(=O)NCc3cc(C(C)C)no3)CCC2=O)cc1 (stereo not given)	2.8	5	-1%	8	0	-34%[inhibitor]
Cc1cccc(Oc2ccccc2N)c1	-3.7	-3	-4%	-8	-6	-13%
Cc1cc(C(=O)N2CCC2(C)C(=O)NS(=O)(=O)c2cccc(Cl)c2)nn1C (stereo not given)	-4.0	0	nt	-6	-3	nt
COc1ccc(C)cc1S(=O)(=O)N(CC(=O)N1CCOCC1)c1cc(C)cc(C)c1	-0.5	-2	4%	13	8	-2%[15.4 µM]
CCOc1ccc(C(=O)OCC(=O)Nc2nc(OC)cc(OC)n2)cc1OCC	0.5	1	20%	4	-7	15%
CCCCOc1ccc(/C=C/C(=O)OCC(=O)NC2CCS(=O)(=O)C2)cc1OCC (stereo not given)	1.4	5	-14%	2	-1	20%[15.4 µM]
O=C(Nc1ccc(S(=O)(=O)N2CCN(c3ccccc3)CC2)cc1)c1cccs1	3.3	-10	-3%	2	10	-6%
CC1=NN(c2cccc(Cl)c2)C(=O)C12CC(C)=C(C)CS2 (stereo not given)	?	6	-7%	-12	18	-8%[15.4 µM]
O=C(O)c1cc(N/N=C/c2ccc(N3CCOCC3)cc2)ccc1Cl	15	21	-8%	nt	9	-2%
Cc1nn(CCCC(=O)Nc2cc(Oc3ccccc3)cc([N+](=O)[O-])c2)c(C)c1[N+](=O)[O-]	-0.7	-14	-25%	-13	-15	9%[15.4 µM]
CCCc1cc(=O)[nH]c(SCC(=O)Nc2c(C)n(C)n(-c3ccccc3)c2=O)n1	-1.7	-3	8%	0	-2	-5%
CCC(C(=O)NCC1CCCO1)n1nc(C)c2sc3ccccc3c2c1=O (stereo not given)	-2.0	-3	-7%	-1	-7	?
Oc1[nH]c2ccccc2c1N=Nc1nc2ccccc2s1	-0.1	-1	-5%	-7	5	-21%
OC1C(O)C(O)C(O)C(O)C1O (stereo not given)	-2.5&2.1&5.1	3&5&-1	0%&4%&6%	3&0&1	-13&-9&-5	nt
COCCNC(=O)C1(C)CCCN(Cc2csc(-c3ccc(Cl)cc3)n2)C1 (stereo not given)	1.4	3	nt	1	-9	nt
Cn1nc(-c2ccccc2)c(-c2nc(-c3ccc(Cl)cc3)no2)c1Cl	-5.6	6	8%	3	-6	0%
COc1ccc(C(=O)NCc2ccccc2)cc1Br	-1.2	-11	5%	-1	-4	-8%
Cc1cc(C(=O)Nc2cccc3ccccc23)c(C)o1	-3.1	-7	3%	0	-5	7%
CCc1nc2c(OCc3ccc(OC(F)F)cc3)cccn2c1N(C)C(=O)c1cccs1	-3.3	-14	nt	2	-7	nt
Cc1ccc(C(=O)N2CCc3ccccc32)cc1C	-4.1	13	-12%	nt	-29	-29%
CN(C)/C=C/C(=O)c1ccc(Oc2ccccc2)cc1	5.5	-3	-12%	-3	-7	-47%[inhibitor]
CCc1ccccc1N1CN(Cc2cccnc2)CNC1=S	-7.2	-18	14%	nt	-23	?
Cc1cc(C(C)(C)C)ccc1OCCOCCN1CCCC1	-1.6	0	14%	14	-18	-1%[15.4 µM]
COc1cccc(/C=C2\SC(=S)N(CCC(=O)N3CCCCC3)C2=O)c1	-1.7	-18	18%	-26	-32	-1%
CC(OC(=O)CC1CCCCC1)C(=O)Nc1ccc(S(N)(=O)=O)cc1 (stereo not given)	-1.4	8	-6%	8	-68	25%[15.4 µM]
Cc1ccccc1C(=O)OCC(=O)N1CC(=O)Nc2ccccc21	-3.4	-10	nt	-2	-7	2%
CCN(CC(=O)Nc1c(F)cccc1F)C(=O)Cc1c(C)nc2ccccc2c1C	-5.9	6	6%	nt	-9	21%
CCOc1ccc(-n2cc(C(=O)NC(C)C)c3cc(OC)c(OC)cc3c2=O)cc1	-1.4	-1	-20%	0	21	-11%
CSc1nc(N(C)NC(=O)c2ccccc2)c2ccccc2n1	-0.6	2	27%	2	?	-10%
COc1ccccc1C(=O)O/N=C(\N)c1ccccc1Cl	?	19	16%	nt	22	1%
C[C@H]1C=C(C(=O)NC2CC2)O[C@@H](OCc2ccc(CO)cc2)C1	-2.0	4	0%	4	-2	nt
CCN(C(=O)CSc1nnnn1-c1ccccc1OC)C1CCS(=O)(=O)C1 (stereo not given)	-3.7	2	8%	4	-4	-20%
C=CCn1c(=NC(=O)c2ccc(S(=O)(=O)N3CCCC3)cc2)sc2cc(NC(C)=O)ccc21	-2.7	1	14%	-3	-8	?
CN(CCCN1CCOCC1)C(=O)c1cc(COc2ccc(F)cc2F)on1	0.6	2	18%	3	-10	-48%[inhibitor]
CCOc1ccc(S(=O)(=O)NCCC(=O)NCC(c2ccccc2OC)N2CCCC2)cc1 (stereo not given)	-1.6	22	10%	-6	-4	-45%[inhibitor]
C[C@@H]1COC(=O)[C@H](NC(=O)OCC2c3ccccc3-c3ccccc32)C/C=C\C[C@@H](CC(=O)N(CCO)Cc2ccccc2)C(=O)N1	-10	-5	10%	2	-10	?
O=C(Cn1cnc2ccccc2c1=O)NCCC(=O)Nc1ccc(F)cc1	-2.0	-2	4%	4	-7	?
CC(=O)Nc1ccc(S(=O)(=O)NCC2CCC(C(=O)NCCC3=CCCCC3)CC2)cc1 (stereo not given)	-1.1	-1	-6%	0	7	?
COc1cccc(NC(=O)C2CC(=O)N(Cc3ccc(C)cc3)C2)c1 (stereo not given)	-4.9	-4	-5%	-2	-55	-2%

(cont.)
Compound	D2 ag	Six1-Eya2 inh	gsp antag	CtBP-E1A inh	D2 potentiator	gsp agonist
COCCN1CN(S(=O)(=O)c2ccc(Cl)cc2)c2nc3ccccc3nc21	4.2	-8	-15%	-1	-7	-7%
O=C(COC(=O)C1CCCCC1)Nc1cccc(Br)c1	-2.4	1	9%	nt	-7	-27%
COc1ccc(-n2c(Cc3cccn3C)nnc2SCC(=O)N2CCCc3ccccc32)cc1	-2.0	-6	-9%	-22	-4	-57%[inhibitor]
CS(=O)(=O)c1ccc(C(=O)NNC(=O)c2ccccc2-n2cccc2)cc1	0.0	-1	12%	nt	8	-3%
CCOc1ccc(S(=O)(=O)N2CCOCC2)cc1NC(=O)CN1C(=O)NC2(CCCC2)C1=O	4.6	3	13%	-4	-1	21%
COc1cccc(-c2nn(-c3ccccc3)cc2CN(C)Cc2c(C)nc3ccccn23)c1	-6.0	-3	-18%	nt	-14	1%
CCCCCC(=O)N1C[C@H](O)[C@@H](n2cc(-c3ccc(F)cc3)nn2)C[C@@H]1c1ccc(C)cc1	1.8	-6	nt	-5	-8	-27%
CC1=CC(C)(C)N2C(=O)C(=O)c3cc(OC(=O)c4ccco4)cc1c32	-3.8	-9	14%	-1	-16	0%[15.4 µM]
COc1ccc(C(=O)NCC23C=CC(O2)C2C(=O)N(Cc4ccccc4)C(=O)C23)cc1 (stereo not given)	-0.4	4	-42%	9	-6	2%
COc1ccc(NC(=O)CCCNC(=O)Cn2cnc3sc4c(c3c2=O)CCCC4)c(OC)c1	-9.8	23	-23%	-2	-7	0%[15.4 µM]
CCCC(=O)Nc1c(-c2ccc(OC)cc2)c(=O)c2ccccc2n1C	-1.0	3	3%	5	9	36%
O=C(CNc1ccc(F)cc1)c1ccccc1	-21	-10	-17%	0	-35	-9%[15.4 µM]
CN1CCN(C(=O)C2CCCN(S(=O)(=O)c3ccc(F)cc3)C2)CC1 (stereo not given)	-1.3	2	2%	7	-8	?

Screens as filed in PubChem BioAssay.
